LASV entry inh – blocks Lassa virus binding to or entry into cells; Lassa virus pseudotype entry inhibition, cell reporter; control for the full effect not named in the record; Potency, µM (highest dose often 37.9 µM), without a hit: at the top dose activity change, negative = inhibition, actives largely listed as inhibitors; 1.2% of 300,000 active; active means well fitted inhibition curve with a large enough effect; inconclusive means small, poorly fitted or top-dose-only effect, or effect the other way; inactive means flat fitted curve, though single readings scatter; tested in HEK293 cells; further: on the % scale 0 is the no-effect control and ±100 the full control effect; nearly all actives have a fitted effect of over 50% in size; luciferase read-out
NS1 inh – inhibitors of influenza NS1 protein function; S. cerevisiae slowed by influenza A NS1, growth recovery by OD600; Potency, µM (series often up to 46.1 µM), for inactives: top-dose activity, positive = more growth; 0.4% of 270,000 active; AID 2326; active means well fitted rising curve with a large enough effect; inconclusive means small, poorly fitted or top-dose-only effect; inactive means no such curve, though single readings can be large or run the other way; further: nearly all actives have a fitted effect of over 50% in size
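Read-out: OD600 growth recovery of NS1-expressing budding yeast. Cells grown overnight at 30C in -URA glucose medium, washed, resuspended and diluted 1:100 in 2% galactose assay medium, pH 6.0. Same strain lacking NS1 served as positive control.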
Cruzain noTriton – cruzain (T. cruzi) inhibition without detergent. 2.3% of 200,000 active. purified cruzain, Z-FR-AMC fluorescence, no detergent. AID 1476. Potency, µM, without a hit: max response, negative = inhibition, hits mostly inhibitors. P25779;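 further: plate controls were enzyme without inhibitor for no effect and buffer without enzyme for full effect; nearly all actives have a fitted effect of over 40% in size; top concentration of the series not given in the record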
Target sequence (P25779 123-467 limits assumed): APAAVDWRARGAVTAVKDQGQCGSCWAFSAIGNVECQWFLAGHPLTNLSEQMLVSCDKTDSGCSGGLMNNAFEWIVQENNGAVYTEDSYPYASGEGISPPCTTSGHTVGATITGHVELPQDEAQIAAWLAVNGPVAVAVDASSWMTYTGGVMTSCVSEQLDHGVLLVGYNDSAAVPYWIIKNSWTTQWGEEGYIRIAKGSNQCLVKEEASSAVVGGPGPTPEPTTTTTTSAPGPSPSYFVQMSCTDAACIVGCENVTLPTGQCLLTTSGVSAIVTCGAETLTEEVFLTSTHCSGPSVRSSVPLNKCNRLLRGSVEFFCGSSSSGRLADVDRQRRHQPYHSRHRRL
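Purified cruzain at 1.5 nM, pre-incubated 15 min with compound at room temperature in 100 mM sodium acetate pH 5.5, 5 mM DTT, 0.00005% Triton X-100. Reaction started with 2 uM Z-FR-AMC; AMC fluorescence increase over 60 s gives rate.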
RE007 growth inh – less growth of the S. pombe RE007 Vpr strain | S. pombe RE007 Vpr strain, BacTiter-Glo ATP luminescence, 24 h; control for the full effect not named in the record | AID 651644 | Potency, µM (highest dose often 92.2 µM), for inactives: at the top dose activity change, negative = less growth | 0.21% of 360,000 active; active = well fitted falling curve with a large enough effect; inconclusive = small, poorly fitted or top-dose-only effect; inactive = no such curve, though single readings can be large or run the other way;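 further: on the % scale 0 is the no-effect control and ±100 the full control effect; nearly all actives have a fitted effect of over 50% in size; the assay follows cell death caused by Vpr and the record does not say whether a fall means rescue or toxicity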
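Fission yeast strain RE007, carrying one chromosomally integrated HIV-1 vpr copy, was seeded at OD 0.01 in PMG+AL medium with 23 nL pinned compound. After 24 h at 30 °C and 99% humidity, viability was read by BacTiter-Glo luminescence.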
MARV entry inh – Marburg virus entry inhibition; Marburg virus pseudotyped entry inhibition, cell reporter; control for the full effect not named in the record; about a third of the inactives were read at about 46 µM; Potency, µM (series often up to 37.8 µM), without a hit: at the highest dose activity change, negative = inhibition, usual class: inhibitors; 1.8% of 300,000 active; AID 540276; active = well fitted inhibition curve with a large enough effect; inconclusive = small, poorly fitted or top-dose-only effect, or effect the other way; inactive = flat fitted curve, though single readings scatter; tested in HEK293 cells; about a fifth of its hits are not listed in these tables; further: on the % scale 0 is the no-effect control and ±100 the full control effect; luciferase read-out
SARS PLP yeast – SARS-CoV PLP inhibition in yeast; AID 485353; Potency, µM (doses to about 32.9 µM), for inactives: top-dose activity, positive = growth rescue; S. cerevisiae expressing SARS-CoV PLpro, growth rescue; control for the full effect not named in the record; 0.19% of 330,000 active; active means well fitted rising curve with a large enough effect; inconclusive means small, poorly fitted or top-dose-only effect; inactive means no such curve, though single readings can be large or run the other way; further: 0% is about no effect; nearly all actives have a fitted effect of over 55% in size; growth read by luminescence after 48 h
StopGo reporter – lowers the luciferase signal of an FMDV 2A StopGo reporter. AID 1159524. human cells with a luciferase reporter of 2A StopGo recoding; control for the full effect not named in the record. Potency, µM (series often up to 57.9 µM), without a hit: top-dose signal change, negative = less light. 1.2% of 410,000 active; active = well fitted falling curve with a large enough effect; inconclusive = small, poorly fitted or top-dose-only effect; inactive = no such curve, though single readings can be large or run the other way; tested in HEK293T cells; further: on the % scale 0 is the no-effect control and ±100 the full control effect; nearly all actives have a fitted effect of over 45% in size; luciferase light after 4 h
Cruzain Triton – inhibitors of Trypanosoma cruzi cruzain with detergent; P25779; purified cruzain, Z-FR-AMC fluorescence, 0.01% Triton; Potency, µM, for the others: max response, negative = inhibition, hits mostly inhibitors; 0.43% of 200,000 active; AID 1478;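 further: plate controls were neutral wells for no effect and buffer without enzyme for full effect; nearly all actives have a fitted effect of over 40% in size; top concentration of the series not given in the record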
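Steps: dispense cruzain (1.5 nM final) in acetate buffer pH 5.5 with DTT and 0.01% Triton X-100; pin-transfer compounds; incubate 15 min RT; add Z-FR-AMC (2 uM final); read fluorescence every 30 s, using the 60 s intensity change.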
* marks the source's active call; other numbers are inactive results; ? = inconclusive; / = no result given; & = joins results of further samples; [ ] = remark or other dose. Unless noted, the call rests on the fitted dose curve; in most records, active means well fitted curve in the direction sought with a large enough effect; inconclusive means small, poorly fitted or top-dose-only effect, or another doubt; inactive means no such curve, though single readings can be large; an effect the other way counts as inactive or inconclusive. Potency means the concentration at half of the fitted maximal effect.

The opening 3 records as a preview:
Molecule | LASV entry inh | NS1 inh | Cruzain noTriton | RE007 growth inh | MARV entry inh | SARS PLP yeast | StopGo reporter | Cruzain Triton
CN(C)c1c(N)[nH]c2c(c1=O)c(=O)n(C)c(=O)n2C | 3% | -7% | ? | -24% | 0% | 7% | ? | 0.2%
Cn1ncc(N=Cc2ccccc2[N+](=O)[O-])c1C(N)=O | 18% | 6% | / | -24% | ? | 0% | -5% | /
Cc1ccc(S(=O)(=O)NCCCCCC(N)=O)cc1 | 11% | 9% | ? | 10% | 8% | ? | 4% | -5.2%

Results (from the top)
Molecule | LASV entry inh | NS1 inh | Cruzain noTriton | RE007 growth inh | MARV entry inh | SARS PLP yeast | StopGo reporter | Cruzain Triton
CN(C)c1c(N)[nH]c2c(c1=O)c(=O)n(C)c(=O)n2C | 3% | -7% | ? | -24% | 0% | 7% | ? | 0.2%
Cn1ncc(N=Cc2ccccc2[N+](=O)[O-])c1C(N)=O | 18% | 6% | / | -24% | ? | 0% | -5% | /
Cc1ccc(S(=O)(=O)NCCCCCC(N)=O)cc1 | 11% | 9% | ? | 10% | 8% | ? | 4% | -5.2%
CNC(=O)C1CC(=O)N(CCc2ccccc2)C(=Nc2ccc(OC)cc2)S1 (stereo not drawn) | -34% | / | / | 7% | ? | 3% | -25% | /
Clc1cc(Cl)c2nc(N3CCCC3)sc2c1 | 17% | -7% | / | ? | 9% | / | -12% | /
Cc1cc(OCc2nc(-c3ccc(NC(=O)c4cccnc4)cc3)no2)ccc1Cl | -23% | 19% | ? | 8% | ? | 5% | -7% | 5.5%
Cc1cc(C)c(S(=O)(=O)/N=C2\C=CC(=O)C(Cl)=C2)c(C)c1 | 2% | 15% | ? | 2% | -22% | 4% | 55%[activator] | ?
O=C(Nc1cccc(-c2ccc(N3CCOCC3)nn2)c1)c1ccccc1 | ? | / | / | -13% | -3%[46.1 µM] | 0% | 11% | /
Cc1ccc(/C=C/C(=O)O)cc1S(=O)(=O)Nc1ccc(C(=O)O)cc1 | / | 6% | / | 4% | / | 1% | 1% | /
COc1ccc(-c2[nH]n(-c3ccc([N+](=O)[O-])cc3)c(=O)c2C=NCc2ccncc2)cc1 | ? | 19% | ? | -23% | 9%[46.1 µM] | -31% | ? | -3.6%
O=C(Cc1csc2nc(-c3ccc(F)cc3)cn12)NCc1ccccc1 | -2%[46.1 µM] | / | -11% | / | / | / | 0% | -2.1%
O=S(=O)(NCCCCNS(=O)(=O)c1ccc(F)cc1)c1ccc(F)cc1 | -18% | / | / | -12% | -10%[46.1 µM] | / | 22% | /
O=C(CN(Cc1ccco1)C(=O)CNS(=O)(=O)c1ccc(Cl)cc1)NCC1CCCO1 (stereo not drawn) | -12% | -10% | / | -4% | -17%[46.1 µM] | -1% | 16% | /
Cc1ccccc1C(=O)NNc1ncnc2c1cnn2C | 23% | 12% | / | 15% | ? | 1% | -2% | /
CCNS(=O)(=O)c1ccc(CCC(=O)N2CCN(c3ccc(OC)cc3)CC2)cc1 | 6% | -1% | / | 4% | -3% | 0% | -11% | /
Cc1ccc(NC(=O)CSc2nc(N)cc(=O)[nH]2)cc1S(=O)(=O)N1CCCCCC1 | ? | / | / | -6% | -1%[46.1 µM] | -4% | -6% | /
CC1CCN(C(=O)C(=O)c2cn(CC(=O)N3CCCCCC3)c3ccccc23)CC1 | 7%[46.1 µM] | 12% | / | 1% | ? | -4% | 8% | /
Cc1ccc(-c2nn(CCC(=O)O)cc2CCC(=O)O)cc1 | 24% | -8% | 1% | 7% | 9% | 4% | 20% | 6.6%
O=c1[nH]c(-c2cccnc2)nc2ccccc12 | 18% | 4% | -3% | 10% | 0% | -6% | -1% | -0.4%
COc1ccc(OC)c(-n2cnc3cc(C(=O)NC4CCCC4)ccc32)c1 | -20%[46.1 µM] | / | 0% | / | / | / | 3% | -1.6%
Cc1ccc(S(=O)(=O)N2CCOCC2)cc1NC(=O)CSc1nc(N)cc(N)n1 | 4% | / | / | -6% | -8% | -4% | -16% | /
Cc1ccc(C(=O)O/N=C(\N)Cc2cccc3ccccc23)cc1 | 20%[46.1 µM] | -40% | / | -12% | ? | -10% | -13% | /
CCO[C@H]1OC(C(N)=O)=C[C@@H](c2ccc(Br)cc2)[C@@H]1CCCO | / | 3% | / | -3% | / | -1% | -16% | /
C/C(=N/OC(=O)CC(C)C)c1cc(-c2ccc(Cl)cc2)no1 | -28%[46.1 µM] | -5% | / | 3% | 21%[46.1 µM] | 19% | 61%[activator] | /
C=Cn1c(C(=O)O)ccc1-c1ccc(OC)cc1 | ? | 2% | / | -15% | 15% | -1% | -12% | /
COc1cccc(NC2=C(C#N)C(=O)NC(c3cccc(OC)c3O)S2)c1 (stereo not drawn) | / | 1% | / | 9% | / | 0% | 15% | /
NCC(=O)Nc1ccc(Cl)cc1C(=O)c1ccc[nH]1 | / | 0%&2% | 4% | / | / | 0% | -3% | 2.0%
CSc1cccc(NC(=O)N2CCCC(CNS(=O)(=O)Cc3ccccc3)C2)c1 (stereo not drawn) | / | -4% | / | 2% | 5%[46.1 µM] | -2% | 16% | /
O=C(CSc1nnc(NC(=O)c2cccc(F)c2)s1)NCC1CCCO1 (stereo not drawn) | 2% | 5% | / | 1% | ? | 0% | 10% | /
CN(C)C(=O)CN1C(=O)C2CC=C(Cl)CC2C1=O (stereo not drawn) | ? | 2% | -1% | -2% | 14% | 2% | 0% | -4.0%
COc1ccc2nc3sc(C(=O)NCCN4CCc5ccccc5C4)cc3cc2c1 | 10% | 2% | 10% | -16% | ? | 8% | 23% | -11%
COc1cccc(NS(=O)(=O)c2ccc(-c3cc(C)no3)s2)c1 | -22%[46.1 µM] | / | 18% | / | / | / | 5% | 4.5%
C=CCN1C(=O)/C(=C2/Sc3ccccc3N2C)SC1=Nc1ccccc1C | -26% | -2% | ? | 17% | 6% | 0% | -13% | -0.4%
COC(=O)CN(C#N)c1nc(SC)nc(N(C)C)n1 | 20%[14.3 µM] | -6% | 13µM* | -2% | -28% | 4% | -1% | 16µM*
C=CCNc1nc(SC)nc2ccsc12 | 1% | -3% | -10% | 5% | 10% | 6% | -21% | 3.2%
CN1C(=S)SC(N(O)C(=O)Nc2ccc(Cl)c(Cl)c2)C1(C)C (stereo not drawn) | -24% | -53% | 2% | 14% | ? | 25% | -16% | -11%
COc1cccc(NC(=O)c2c(N3CCCC3=O)c3cc(C)ccc3n2C)c1 | 15%[46.1 µM] | / | 9% | / | / | / | ? | -10%
Cc1nn(Cc2ccccc2)c2sc(C(=O)N3CCN(Cc4ccc5c(c4)OCO5)CC3)cc12 | ? | -34% | 15% | 5% | ? | / | 32µM* | 0.6%
Cc1cccc(C)c1OCCCN1CCOCC1 | -10% | 1% | / | 1% | ? | 2% | -4% | /
C=CCNC(=O)c1ccc(-c2nc(-c3ccc(Cl)c(Cl)c3)cs2)cc1 | -2% | 6% | 20µM* | 5%[3.69 µM] | ? | 0% | -14% | 3.2%
CCCSc1cc(=O)n(-c2ccccc2)nc1C(=O)OCC | 1% | -49% | 2% | 2% | -10% | 4% | -11% | -3.8%
O=C(COC(=O)CCc1nc2ccccc2s1)Nc1cccc(S(=O)(=O)N2CCOCC2)c1 | 1% | -11% | ? | 3%[3.69 µM] | -5% | 1% | -1% | 2.5%
Cn1ccsc1=NC(=O)c1ccccc1F | -2% | / | / | -2% | / | -3% | 44%[activator] | /
CC(C)COc1ccc(C(=O)NC(Cc2c[nH]c3ccccc23)C(=O)NN)cc1 (stereo not drawn) | / | 4% | / | -3% | / | 0% | -14% | /
Cc1ccc(S(=O)(=O)N2CCN(Cc3ccccn3)CC2)cc1 | / | 2% | / | 5% | / | 0% | -6% | /
COc1ccc(C(=O)N2CCOC23CCN(c2ncccn2)CC3)cc1 | ? | 3% | / | 0% | -12%[46.1 µM] | -1% | 5% | /
CN(Cc1cn[nH]c1-c1cc2ccccc2o1)CC1CCOCC1 | 13%[46.1 µM] | -1% | / | -2% | ? | -1% | -1% | /
COc1ccc(NC(=O)c2ccccc2)c([N+](=O)[O-])c1 | 5% | / | / | 1% | -7%[46.1 µM] | -6% | 64%[activator] | /
Cc1cc(Nc2ccc(C(=O)N3CCCCC3)cc2)c2cccc(C)c2n1 | / | -3% | / | -7% | / | 0% | -6% | /
CC(C)c1ccc(N=c2c([N+](=O)[O-])nn(-c3ccc4c(c3)OCCO4)n2O)cc1 | 10% | 7% | -16% | 27% | -2% | 2% | / | -7.1%

The results go on.
Molecule | LASV entry inh | NS1 inh | Cruzain noTriton | RE007 growth inh | MARV entry inh | SARS PLP yeast | StopGo reporter | Cruzain Triton
COc1ccc(S(=O)(=O)Nc2ccccc2C(=O)NCc2cccnc2)cc1C | 3% | -4% | / | -9% | 18%[46.1 µM] | -1% | 16% | /
CCN(CC)S(=O)(=O)c1cc(NC(=O)c2cc(-c3ccccn3)nc3ccccc23)ccc1C | / | 23% | / | -8% | / | -6% | -29% | /
O=C(CN1CCN(C2CCCCC2)CC1)NCCC1=CCCCC1 | 0% | -3% | -1% | -1% | -27% | -1% | / | 3.2%
Cn1c(N)c(C(=O)COC(=O)/C=C/c2cccc(C(F)(F)F)c2)c(=O)n(C)c1=O | 19% | / | / | -3% | 18% | 2% | -13% | /
CCOC(=O)c1ccc(NC(=O)c2cccc3c2C(=O)N(CC2CCCO2)C3)cc1 (stereo not drawn) | / | -24% | / | 3% | / | -16% | -12% | /
O=C1CS(=O)(=O)C2(C(=O)Nc3ccccc32)N1c1cccc(Cl)c1 (stereo not drawn) | 29%[46.1 µM] | / | -25% | / | / | / | -25% | -3.2%
COC(=O)c1sccc1NC(=O)c1sccc1C | 2% | 10% | 13% | 4% | ? | -2% | 11% | -2.7%
CCOC(=O)c1ccccc1NC(=O)CN(c1cccc(C)c1C)S(=O)(=O)c1ccccc1 | ? | / | 1% | / | ? | / | -28% | -1.0%
